GIV-Gai inh: GIV-Galpha-i interaction inhibition | P08753 | Galpha-i3/FITC-GIV peptide fluorescence polarization, 90 min; hits give low values; scaled: aluminum fluoride 0%, vehicle 100% | percent of control (FP), % (no concentration beside the values) | 210,000 tested, 0.42% active | AID 1224905;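 active means replicate mean at 85% of control or lower, very high polarization wells dropped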;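 further: wells of about 15 µL received 100 nL stock; the first replicate is given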
Target sequence (P08753 whole entry, looked up): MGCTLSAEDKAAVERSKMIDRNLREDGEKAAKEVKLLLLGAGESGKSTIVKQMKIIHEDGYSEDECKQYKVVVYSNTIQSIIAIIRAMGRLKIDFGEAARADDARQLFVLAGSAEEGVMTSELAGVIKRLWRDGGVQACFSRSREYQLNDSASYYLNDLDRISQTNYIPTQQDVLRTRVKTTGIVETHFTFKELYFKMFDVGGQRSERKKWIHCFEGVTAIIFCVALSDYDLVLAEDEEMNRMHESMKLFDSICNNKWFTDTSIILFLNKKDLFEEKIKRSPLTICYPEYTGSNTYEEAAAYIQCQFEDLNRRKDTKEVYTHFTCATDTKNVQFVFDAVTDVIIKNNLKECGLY
Sa growth inh: inhibitors of Staphylococcus aureus growth at 42 °C. S. aureus RN4220 growth, OD600, 20 h; hits give low values. relative growth, % (concentration not given with the values). 170,000 tested, 0.53% active. AID 720641;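 active means growth at 42 °C up to 50% and 20 or more points under that at 30 °C, or under 10% at both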;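 further: 300 nL library stock went into each well; scaled to the means of positive and negative controls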
HCMV UL50-53 inh: disrupts HCMV UL50-UL53 complex binding. HTRF UL50-UL53 interaction, normalized percent inhibition. AID 1918969. inhibition, % (test concentration not listed). 190,000 tested, 0.15% active;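 active means both replicates at 50% or more, plus weaker picks with an unusually low signal ratio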;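 further: stock transfer was 100 nL into about 20 µL; 0% = negative control wells and 100% = wells with untagged competitor protein; inactives centre near -12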
Sa growth inh second temp: further read-out of Sa growth inh, marked with its call; relative growth, %; measured here: growth at 30 °C;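 optical density after 20 h as mean of two plates; 100% = untreated growth and lower means inhibition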
* = called active by the depositor; x = no result given.

mol	GIV-Gai inh	Sa growth inh	Sa growth inh second temp	HCMV UL50-53 inh
CCc1ccccc1NC(=O)C1CCC(CNS(=O)(=O)c2ccc3c(c2)CC(C)N3C(C)=O)CC1 (centres undefined)	109	120	94	x
CN(C)c1ccc(CNC(=O)C2CCN(Cc3cc4ccccc4n3Cc3ccccc3)CC2)cc1	103	129	100	x
O=C(CSc1nc(-c2ccc(F)cc2)nc2c1Cc1ccccc1O2)Nc1cccc(C(=O)O)c1	104	112	73	-86
O=c1[nH]c(CNCCO)nc2ccsc12	x	101	94	-26
COc1ccc(CCNC(=O)c2ccc(Cn3c(=O)c4ccccc4n(Cc4cccc(Cl)c4)c3=O)cc2)cc1OC	103	97	82	2
COc1ccc(-c2oc(/N=C/c3ccccc3)c(C#N)c2-c2ccc(OC)cc2)cc1	105	115	115	-8
O=C(O)c1ccc2c(c1)C(=O)N(c1cccc(Cl)c1)C2=O	88	87	80	-82
Cn1nnnc1NCc1ccc2c(c1)n(C)c(=O)n2C	104	x	x	-17
CC(C)c1cc(N)on1	x	93	85	-25
O=C(CCC1CCCC1)NCc1ccc2[nH]c3c(c2c1)CCCC3	102	90	81	x
Cc1c(C(=O)N2CCC(C)CC2)c(S(=O)(=O)Nc2cccc(C#N)c2)c(C)n1C	102	80	83	x
CCOc1ccc2oc(=O)cc(CN3CCN(C(=O)c4ccc(Cl)cc4)CC3)c2c1	110	82	72	2
CCCSc1nnc2c(n1)OC(c1cccn1C)N(C(C)=O)c1ccccc1-2 (centres undefined)	102	x	x	-18
CCc1cccc(NC(=O)C2CCN(c3nn4c(=O)cc(C)nc4s3)CC2)c1	108	92	89	x
Nc1nc2ccc(-c3nc4ccccc4o3)cc2s1	103	104	66	x
OC(COc1ccc2ccccc2c1)Cn1ccnc1 (centres undefined)	101	101	59	-38
N#C/C(=C\c1ccccc1)c1nc(-c2cc3c(ccc4ccccc43)oc2=O)cs1	115	98	106	-9
CC(=O)OC1C(OC(C)=O)N(C(C)=O)C(=O)N1C(C)=O (centres undefined)	100	96	84	x
CCc1c(C)c(C#N)c2nc3ccccc3n2c1-n1ccnc1	147	107	83	x
CCOc1ccc(C(=O)N(C)Cc2ccc(OC)cc2OC)cc1	x	58	80	-1
CC1CSc2ccc(S(=O)(=O)N3CCOCC3)cc2N(CC(=O)Nc2ccc(F)cc2F)C1=O (centres undefined)	103	x	x	-20
CC(=O)Nc1ccc(NC(=O)c2cc3c(=O)n(Cc4cccnc4)ccc3nc2C)cc1	98	78	91	x
Oc1ccc(NC(=S)NCCc2ccccc2)cc1	108	104	73	-16
COc1ccc(-c2nnc3sc(COc4ccc(Br)cc4)nn23)cc1	107	x	x	-7
O=C(Cc1csc(NC(=O)Nc2ccccc2)n1)NCCc1c[nH]c2ccccc12	105	x	x	-13
CCC(=O)N1c2ccccc2CC1C(=O)NCCc1ccc(C)cc1 (centres undefined)	100	85	83	x
CCOc1ccccc1Cn1c(=O)c2sccc2n2c(=O)[nH]nc12	103	x	x	-24
O=C(CS(=O)(=O)c1ccc(Cl)cc1)Nc1nc2ccc(Br)cc2s1	101	112	95	x
CCC(=O)Nc1cccc(C(=O)N2CCc3ccccc32)c1	105	90	70	-17
CCCNC(=O)Cn1nc(C)c2sc3ccccc3c2c1=O	99	93	84	x

3 compounds already listed, ordered by their value in GIV-Gai inh, descending.
Structure	GIV-Gai inh
N#C/C(=C\c1ccccc1)c1nc(-c2cc3c(ccc4ccccc43)oc2=O)cs1	115
O=C(CCC1CCCC1)NCc1ccc2[nH]c3c(c2c1)CCCC3	102
CC(=O)OC1C(OC(C)=O)N(C(C)=O)C(=O)N1C(C)=O (centres undefined)	100

(cont.)
mol	GIV-Gai inh	Sa growth inh	Sa growth inh second temp	HCMV UL50-53 inh
O=C(CCn1c(=O)c2ccccc2n(Cc2ccc(Cl)cc2)c1=O)NCc1ccc2c(c1)OCO2	100	97	88	-7
CC(=O)OCC(=O)[C@@]1(O)CCC2C3CCC4=CC(=O)C=CC4(C)C3[C@@H](O)C[C@@]21C (some centres undefined)	x	94	88	-35
CCc1c(C#N)c(SCC(=O)c2cc3ccccc3oc2=O)nc2c1CCC2	99	x	x	-5
O=C1C(=Cc2ccc(C(F)(F)F)cc2)C(=O)c2ccccc21	95	96	87	-16
Oc1cnn(-c2ccccc2)c1	105	105	97	-6
Cc1cc(CNC(=O)NCC2CCCO2)c(C)n1-c1ccc(Cl)cc1 (centres undefined)	108	x	x	4
COc1ccc(-c2nnc(SCC(=O)Nc3ccc(C(C)=O)cc3)nc2-c2ccc(OC)cc2)cc1	104	102	99	x
CCc1ccccc1Nc1ncnc2c1nc1n2CCCC1	106	114	92	x
CCN1C(=O)C[C@@H](C(=O)NC)[C@@H]1c1ccc(OC)cc1OC	102	87	93	13
Cc1ccc(-c2nnc3c4ccccc4c(C)nn23)cc1S(=O)(=O)N1CCN(c2ccccc2)CC1	104	x	x	12
Cc1cccc(-c2noc(-c3cn(Cc4ccc(NC(=O)Cc5ccccc5)cc4)cn3)n2)c1	107	x	x	-40
COCCN1Cc2cccc(C(=O)Nc3ccccc3C)c2C1=O	98	79	76	-2
Cc1cccc(NS(=O)(=O)c2ccc3nc(-c4ccccc4)[nH]c3c2)c1C	105	86	97	-5
O=C1CCCN1CC(O)CS(=O)(=O)c1ccc(Cl)cc1 (centres undefined)	101	93	94	-21
COc1ccc(C(=O)Nc2cc(C(F)(F)F)ccc2-n2cncn2)cc1	x	106	98	-10
CCOC(=O)C1CCN(C(=O)CSc2nc3ccccc3o2)CC1	x	81	91	-5
Nc1nc2ccc(Cl)cc2c(-c2ccccc2)c1CN1CCOCC1	x	95	83	1
Cc1nc(Nc2ccccc2)sc1C(=O)c1ccccc1	103	87	93	-1
N#CCS(=O)(=O)c1ccc(OC(F)(F)F)cc1	98	110	84	-9
COc1cc(NS(=O)(=O)c2cccc(Cl)c2Cl)cc(OC)c1	x	98	92	0
O=S(=O)(c1cccs1)n1ccnc1	116	94	88	x
O=C(NC1CCCC1)c1ccc2c(=O)n3nc(Nc4ccccc4)sc3nc2c1	108	105	101	24
S=C(Nc1ccc(Cl)cc1)Nc1ccc(-c2csnn2)cc1	104	110	81	-18
Cc1nc2c(c(C)nn2C(C)(C)C)c(C)c1CCC(=O)N(C)Cc1ccccc1	104	87	87	x
CN(C)c1ccc(NC(=O)CCSc2nc(-c3ccco3)cc(C(F)(F)F)n2)cc1	110	92	91	-16
O=c1[nH]c2nonc2nc1Nc1ccccc1F	x	29	17	-7
Oc1ccccc1-c1nc(/C=C/c2ccc(F)cc2)no1	105	99	92	-24
CN1c2ccccc2-c2nc(SCC(=O)Nc3ccccc3C(F)(F)F)ncc2S1(=O)=O	103	84	84	x
O=C(O)CNC(=S)N(Cc1cccs1)C1CCCCC1	104	102	88	x
N#CC(C(=O)CN1CCCCC1)c1ccccc1 (centres undefined)	107	98	102	8
CN(CC1COc2ccccc2O1)c1cc(=O)n2cc(Cl)ccc2n1 (centres undefined)	x	88	93	-12
CSc1nnc(CNC(=O)N(c2ccccc2)c2ccccc2)n1C	104	120	88	0
O=C(O)/C=C/C(=O)Nc1ccc(C2CCCCC2)cc1	106	146	108	-2
CC(=O)NCCc1nc2ccc(NC(=O)Cn3nc(C)c4ccccc4c3=O)cc2n1C	96	98	104	-2
COCCCNC(=O)c1cc(-c2cccnc2)nc2ccccc12	108	108	99	x
Cc1cccc(NC(=O)C(C)(C)C)c1	x	99	98	-10
COc1ccc(CCNC(=O)CSc2cn(Cc3ccc(F)cc3)c3ccccc23)cc1OC	101	213	74	x
Cc1nc(SCC(=O)N2CCCC2)c2c(=O)n(C)c(=O)n(C)c2n1	106	110	91	6
Cc1cc(C)n(-c2ncc(C#N)cn2)n1	100	x	x	-13
COc1ccc2ccccc2c1/C=C1/SC(=Nc2ccccc2)NC1=O	106	x	x	-34
COc1ccc(-c2cc(C(=O)Nc3ccc(Cl)cc3)nn2C2CCS(=O)(=O)C2)cc1 (centres undefined)	104	x	x	-10
COc1ccccc1C1=Nn2c(nc3sc(C(=O)Nc4ccccc4Cl)c(C)c3c2=O)SC1	96	103	89	-20
CCOC(=O)C1=C(C)NC(=S)NC1c1ccc(OCC(=O)N2CCCCC2)c(OC)c1 (centres undefined)	101	120	95	-34
CC1=CC(=O)C(CCCCCC2=CC(=O)C(C)=CC2=O)=CC1=O	109	98	19	-1
O=c1c2c(nc3nn[nH]n13)CCN(Cc1ccccc1)C2	x	104	94	-7
N#Cc1ccc(CSc2ncc3ccccn23)cc1	x	86	82	-46
O=C(O)c1c(-c2ccccc2)oc2ccc(OCc3c(F)cccc3Cl)cc12	95	99	65	0
CCN(CC)S(=O)(=O)c1ccc2c(c1)nnn2CCCC(=O)N1CCN(c2ccccn2)CC1	113	x	x	-2
FC(F)(F)c1cnc(N2CCN(Cc3cc(Cl)c4c(c3)OCCCO4)CC2)c(Cl)c1	x	63	82	-18
COc1cccc(CN2CCN(Cc3ccc(F)cc3)C2c2ccc(SC)cc2)c1 (centres undefined)	103	85	100	x
CCN(CC)c1nc(Cl)nc(N(C)C#N)n1	97	114	88	x
O=C(Oc1ccc(C2SCCS2)cc1)c1ccccc1	103	106	68	3
COC(=O)C1=CO[C@@H](O)[C@@H]2C(CO)=CC[C@H]12	99	x	x	-37
Cc1ccc2nc(-c3cc(NC(=O)/C=C/c4ccccc4)ccc3Cl)oc2c1	103	96	89	-42
COc1ccc(Nc2nnc(-c3ccc(C(=O)NCCO)cc3)c3ccccc23)cc1	105	112	94	-51
CCOC(=O)c1c(C)[nH]c(C(=O)C(C)OC(=O)[C@H](C)N=C2NS(=O)(=O)c3ccccc32)c1C (some centres undefined)	x	88	85	-2
O=C(Nc1ccc2c(c1)CCCN2C(=O)c1cccs1)c1ccccc1	104	99	97	x
O=C(OC1CCOC1=O)c1ccccc1 (centres undefined)	x	75	83	-13
NC(=O)c1cccc(N=Cc2cccc(Cl)c2Cl)c1	104	91	49	x
CCCCC[C@H](CC(=O)NO)C(=O)N[C@H](C(=O)N1CCC[C@H]1CO)C(C)C	108	x	x	4

Reprinted from the part before: 2 entries, followed by the next part.
mol	GIV-Gai inh	Sa growth inh	Sa growth inh second temp	HCMV UL50-53 inh
NC(=O)c1cccc(N=Cc2cccc(Cl)c2Cl)c1	104	91	49	x
CCCCC[C@H](CC(=O)NO)C(=O)N[C@H](C(=O)N1CCC[C@H]1CO)C(C)C	108	x	x	4
Cc1ccc2nc(COc3cccc(NC(=O)Nc4ccc(C)c(Cl)c4)c3)cc(=O)n2c1	96	72	89	x
CSc1c(C#N)c(=O)[nH]c2sc(C#N)c(N)c12	x	80	95	-67
COc1ccc(-c2noc(N3CCN(c4ccc(Cl)cc4)CC3)n2)cc1OC	106	122	93	x
COc1cc2[nH]c(=O)n(CCC(=O)N3CCN(c4ccc(Cl)cc4)CC3)c(=O)c2cc1OC	103	108	100	2
Cc1cccc(-c2nc3nc(CNC(C)C)cc(=O)n3[nH]2)c1	102	x	x	-27
Cc1ccc(-c2nc3cc(NC(=O)c4ccc5c(c4)OCCO5)ccc3o2)cc1	97	x	x	-10
CCOC(=O)NC1Cc2ccccc2C1Sc1ccccn1 (centres undefined)	101	x	x	-20
Cc1ccc(S(=O)(=O)N(CC(=O)Nc2c(C)n(C)n(-c3ccccc3)c2=O)c2ccc(C)c(Cl)c2)cc1	99	x	x	-14

In another format: five of the compounds above.
The line under a structure holds: GIV-Gai inh, Sa growth inh, Sa growth inh second temp, HCMV UL50-53 inh
Cc1ccc(S(=O)(=O)N(CC(=O)Nc2c(C)n(C)n(-c3ccccc3)c2=O)c2ccc(C)c(Cl)c2)cc1
→ 99, x, x, -14
Cc1cccc(-c2nc3nc(CNC(C)C)cc(=O)n3[nH]2)c1
→ 102, x, x, -27
CCOC(=O)NC1Cc2ccccc2C1Sc1ccccn1 (centres undefined)
→ 101, x, x, -20
Cc1ccc(-c2nc3cc(NC(=O)c4ccc5c(c4)OCCO5)ccc3o2)cc1
→ 97, x, x, -10
COc1cc2[nH]c(=O)n(CCC(=O)N3CCN(c4ccc(Cl)cc4)CC3)c(=O)c2cc1OC
→ 103, 108, 100, 2

Assay outcomes (PubChem BioAssay)
